D2 PAM: Beta-Arrestin HTS for Positive Allosteric Modulators of the Human D2 Dopamine Receptor: Potentiators; D(2) dopamine receptor (Homo sapiens), P14416; DiscoveRx D2 beta-arrestin cells, luminescence, 90 min; 100% = 57 uM dopamine signal; potentiation, % (concentration not given with the values); hit rate 0.23% among 360,000; active = potentiation of 50% or more; inconclusive = 30% to 50%; inactive = 30% or less;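 note: compound concentration not given in the record; tested on top of an EC20 dose of dopamine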
Target sequence (P14416 whole entry, looked up): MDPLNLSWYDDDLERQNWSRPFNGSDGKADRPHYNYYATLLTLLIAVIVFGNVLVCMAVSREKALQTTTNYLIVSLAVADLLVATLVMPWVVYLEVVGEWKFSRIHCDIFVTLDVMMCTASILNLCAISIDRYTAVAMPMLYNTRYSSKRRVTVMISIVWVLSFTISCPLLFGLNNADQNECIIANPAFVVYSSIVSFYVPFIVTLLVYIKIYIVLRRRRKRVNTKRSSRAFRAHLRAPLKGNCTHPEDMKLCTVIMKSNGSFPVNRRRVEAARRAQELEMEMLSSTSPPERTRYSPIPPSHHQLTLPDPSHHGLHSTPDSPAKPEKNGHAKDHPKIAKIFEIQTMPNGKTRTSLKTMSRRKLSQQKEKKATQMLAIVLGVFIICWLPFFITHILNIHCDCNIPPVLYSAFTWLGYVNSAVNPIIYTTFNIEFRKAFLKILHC
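PathHunter beta-arrestin assay in DiscoveRx D2 cells. Compounds were added with an EC20 of dopamine (50 nM final) for 90 min at 37 deg C. Luminescence was read 1 h after detection reagent, with 57 uM dopamine as the EC100 control.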
ClpP mod: qHTS Assay for Activators of ClpP; ATP-dependent Clp protease proteolytic subunit (Bacillus subtilis (strain 168)), P80244; purified B. subtilis ClpP, FRET peptide cleavage, 20 min; AID 651965, 2013; hit rate 1.9% among 340,000; Potency, µM (top dose mostly 57.5 µM), inactives show at the top dose activity change, negative = active; active = well fitted falling curve with a large enough effect; inconclusive = small, poorly fitted or top-dose-only effect; inactive = no such curve, though single readings can be large or run the other way; note: potency is the fitted concentration of half-maximal effect; the source files actives as falling curves though it sought activators and does not explain the sign; nearly all actives have a fitted effect of over 65% in size; many hits overshoot -100%
Target sequence (P80244 whole entry, looked up): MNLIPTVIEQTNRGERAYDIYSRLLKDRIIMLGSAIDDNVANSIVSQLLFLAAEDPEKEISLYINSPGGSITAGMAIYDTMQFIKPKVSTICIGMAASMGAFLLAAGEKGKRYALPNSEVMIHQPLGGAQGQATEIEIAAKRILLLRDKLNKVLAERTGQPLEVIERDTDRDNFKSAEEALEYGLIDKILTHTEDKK
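Buffer: 100 mM Tris/HCl pH8, 100 mM KCl, 0.05% low protease BSA, 2.5% glycerol, 0.01% Tween-20. ClpP 10 microg/mL final; 20 min RT; delta FRET normalized to ADEP and DMSO controls.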
gsp agonist: qHTS for Agonist of gsp, the Etiologic Mutation Responsible for Fibrous Dysplasia/McCune-Albright Syndrome: qHTS; hit rate 0.13% among 340,000; AID 624287, 2012; Potency, µM (titrated, usually from 76.9 µM), without a hit: at the highest dose activation (cAMP increase), actives largely listed as activators; gsp mutant cells, cAMP HTRF, 30 min; control for the full effect not named in the record; active = well fitted activation curve with a large enough effect; inconclusive = small, poorly fitted or top-dose-only effect, or another doubt; inactive = no such curve, though single readings can be large or run the other way; cell line not stated here;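 note: phosphodiesterase inhibitor Ro 20-1724 added with compounds to block cAMP breakdown; potency is the fitted concentration of half-maximal effect; nearly all actives have a fitted effect of over 60% in size; about a fifth of the inactives were tested at one dose only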
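Cells stably selected in G418 were plated at 2000/well, grown 16-24 hr, then given compounds in DMSO with the PDE inhibitor […] (300 uM solution added) for 30 min at 37C; cAMP was read by HTRF.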
gsp antag: qHTS for Antagonists of gsp, the Etiologic Mutation Responsible for Fibrous Dysplasia/McCune-Albright Syndrome: qHTS | Potency, µM (titrated, usually from 76.9 µM), for inactives: top-dose activity change, negative = inhibition, most hits filed as inhibitors | gsp-mutant cells, cAMP HTRF, 30 min; control for the full effect not named in the record | hit rate 0.4% among 340,000 | AID 624288, 2012; active = falling curve of any shape with a large fitted effect; inconclusive = falling curve, mostly with a smaller effect; inactive = flat or rising curve; cell line not stated here;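 note: intracellular cAMP measured with PDE inhibitor Ro 20-1724 present during compound exposure; potency is the fitted concentration of half-maximal effect; % is set by controls: 0 for no effect and ±100 for the full control effect; nearly all actives have a fitted effect of over 65% in size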
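Cells, 2000/well, grown 16–24 h in DMEM 10% FBS with 0.5 mg/ml G418, then compounds plus […] (300 uM addition stock), 30 min at 37C. cAMP read by HTRF (cAMP-d2 and anti-cAMP antibody-K in lysis buffer) after 30 min RT.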
TRPV1 PAM: HTS Assay for Compounds that Act as Potentiators of the Vanilloid Receptor 1 | Transient receptor potential cation channel subfamily V member 1 (Homo sapiens), Q8NER1 | TRPV1-expressing cells, Fluo-8 calcium influx, capsaicin EC20 potentiation; host cell line not named in the record; control for the full effect not named in the record | potentiation, % at 8.33 µM | hit rate 0.02% among 320,000; active means potentiation above 80%; inconclusive means 30% to 80%; inactive means below 30%; note: 0% is about no effect
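TRPV1-expressing cells were cultured overnight at 35.5C and loaded with Fluo-8 calcium dye for 40 to 90 min at room temperature. After a 10 s baseline, compound was added and calcium influx was read kinetically for 3 min (ex 480/em 520 nm).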
Menin-MLL FL inh: qHTS Assay for Inhibitors Targeting the Menin-MLL Interaction in MLL Related Leukemias: Competition With Fluorescein Labeled MLL-derived Peptide. Fluorescence polarization, fluorescein-MLL peptide displacement from menin. FP activity change, % at 61.4 µM. 290,000 tested, under 10 active. AID 1766, 2009; inconclusive = falling polarisation curve, or a change in total fluorescence; inactive = total fluorescence flat and polarisation flat or rising; no compound was filed as active; the % refers to the polarisation; negative = inhibition;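 note: % of control where 0% means no effect; inhibitors lower the polarisation; unlabelled MLL peptide was the positive control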
Sfp inh: qHTS Assay for Inhibitors of Bacillus subtilis Sfp phosphopantetheinyl transferase (PPTase); Potency, µM, without a hit: max response, negative = inhibition, most hits filed as inhibitors; hit rate 3.5% among 310,000; Biochemical Sfp PPTase activity, qHTS; active = well fitted inhibition curve with a large enough effect; inconclusive = small, poorly fitted or top-dose-only effect, or another doubt; inactive = no such curve, though single readings can be large or run the other way;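 note: the enzyme is Sfp with the accession as filed and its product quenches rhodamine fluorescence; potency is the fitted concentration of half-maximal effect; 0% = enzyme reaction without inhibitor and -100% = no enzyme wells; top concentration of the series not given in the record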
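Fluorescence-quenching assay with 15 nM Sfp, 5 uM rhodamine-CoA and 12.5 uM BHQ-2-labelled ybbR peptide in pH 7.6 Hepes/MgCl2 buffer. Enzyme was pre-incubated with compound for 15 min at room temperature. Rate was taken from the 30-min fluorescence change (525/598 nm).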
* hit, by the source's call; ? = inconclusive; / = not tested or not shown; [ ] = another dose, or the depositor's remark.

Each structure is followed by: D2 PAM | ClpP mod | gsp agonist | gsp antag | TRPV1 PAM | Menin-MLL FL inh | Sfp inh
COCc1ccc(CN2CCC(n3nccc3NC(=O)CCOc3ccccc3)CC2)o1
    -18.3 | -1.6% | -43.1%[inhibitor] | 2.5% | -24.5 | 1.1 | 9.6%
O=C(CCCN1C(=O)c2ccccc2C1=O)Nc1ccccc1
    -3.1 | -1.6% | 1.0%[15.4 µM] | 3.3% | -6.4 | 10.4 | 6.3%
COc1ccc(-c2oc3ncnc(N)c3c2-c2ccccc2)cc1
    2.5 | 35.5µM* | 9.6% | 7.3% | -15.2 | 0.9 | 8.6%
O=C(COC(=O)Cn1cnc2ccccc21)Nc1ccc2c(c1)OCCO2
    -12.3 | 0.7% | -18.8% | 3.6%[15.4 µM] | 18.8 | 5.8 | 10.7%
CN(CC(=O)Nc1ccc(F)cc1)C(=O)c1ccc2ccccc2n1
    -1.7 | / | -3.9%[15.4 µM] | -9.7% | -7.0 | / | /
CCCC1CCC(=NNS(=O)(=O)c2ccc(C)c([N+](=O)[O-])c2)CC1 (stereo not given)
    -8.0 | 0.8% | ? | -4.3% | 10.1 | 4.5 | 18.2%
O=C(Cn1ccc([N+](=O)[O-])n1)N1CCCc2ccccc21
    -7.7 | 0.7% | ? | 1.5% | 18.4 | -1.1 | -15.1%
CCOC(=O)Cn1c(C)cc(COC)c(C#N)c1=O
    -9.5 | 3.9% | -49.3%[inhibitor] | -7.7% | 0.3 | -2.5 | 15.0%
CCn1c(CNC(=O)c2ccc(OC)c(OC)c2)nnc1SCC(=O)c1ccc(OC)cc1
    -15.8 | 0.8% | -29.9% | 2.9% | -10.8 | 3.7 | -14.4%
COC(=O)c1cc(OC)c(OC)cc1NC(=O)CCNC(=O)c1ccco1
    -0.7 | / | -2.0% | -3.4% | 22.4 | -6.8 | 6.3%
CN1C(=O)C(CC(=O)NCC2CCCCC2)SC1=Nc1ccccc1 (stereo not given)
    -17.2 | 0.7% | 12.1% | -11.2% | 8.1 | -0.5 | -7.5%
Cc1sc(-n2c(C)ccc2C)c(C#N)c1C
    3.6 | -1.3% | -83.3%[inhibitor] | -16.9% | 27.9 | 1.7 | 63.1µM*
CCCCn1c(N)c(N(CCC(C)C)C(=O)COC(=O)c2ccc([N+](=O)[O-])s2)c(=O)[nH]c1=O
    4.1 | 0.8% | -5.4%[15.4 µM] | 7.1% | / | / | /
C/C(=N\NC(=O)c1cccc(N/N=C(\C)c2ccc([N+](=O)[O-])cc2)c1)c1ccc([N+](=O)[O-])cc1
    -7.5 | 0.7% | -62.6%[inhibitor] | -14.2% | -6.1 | 4.5 | 0.1%
Nc1nnc(CC(=O)N/N=C/c2cccc([N+](=O)[O-])c2)s1
    -7.8 | 1.1% | 17.2% | -2.2% | 2.1 | -2.2 | 50.1µM*
Cc1cc(C)nc(NCC(O)CNc2ccccc2C)n1 (stereo not given)
    -7.1 | -7.4% | -2.1% | -7.0% | 29.8 | 0.9 | 11.2%
CCN(CCn1cccn1)Cc1nc(-c2ccc(OC)cc2)no1
    0.7 | -3.6% | -56.8%[inhibitor] | -5.2% | -12.2 | -3.0 | 6.4%
Cc1ccc(S(=O)(=O)N(C)CC(=O)N2CCOCC2)cc1
    -3.1 | 0.4% | -1.0% | 6.2% | ? | 0.4 | -5.0%
Cc1ccccc1NC(=S)N1CCN(Cc2ccc3c(c2)OCO3)CC1
    -11.6 | 0.6% | -19.3% | 8.0% | 4.2 | 20.2 | 12.9%
Cc1cc(-n2c(C)cc(C(=O)COc3ccc([N+](=O)[O-])cc3)c2C)no1
    -2.9 | 3.6% | -52.4%[inhibitor] | -3.3% | -8.2 | -1.2 | 3.4%
Cc1cc(C)c(S(=O)(=O)c2ccccc2)c(Cl)n1
    -21.1 | 14.1µM* | -24.7% | 3.3% | 7.6 | -0.7 | -1.0%
Nc1nn(-c2ccccc2)c(N)c1N=Nc1cccc(F)c1
    1.3 | 0.2% | 18.3% | 1.8% | -6.5 | 5.3 | 2.8%
COc1ccccc1C(=O)NCC(=O)OCC(=O)Nc1ccc2[nH]c(=O)[nH]c2c1
    -4.4 | -0.5% | -2.3%[15.4 µM] | 11.4% | 17.1 | / | /
CCCC(=O)N1CCCC(C(=O)c2cccc(OC(C)C)c2)C1 (stereo not given)
    2.8 | / | 3.3% | -3.1% | / | / | /
Cc1ccc(S(=O)(=O)N2CCCCC2)cc1NC(=O)Cn1cnc2c1c(=O)n(C)c(=O)n2C
    -0.6 | -0.3% | ? | 6.3% | 2.7 | / | /
C=C(C)C1Cc2cc3ccc(=O)oc3cc2O1 (stereo not given)
    9.5 | ? | -16.2% | 12.3% | -5.3 | -0.6 | 19.1%
CCN1C(C#N)=C(C#N)N=C(C)CC1(C)C
    -0.5 | -0.6% | 14.8% | 9.3% | 27.7 | -0.5 | 18.2%
COc1ccc(CN2CCN(Cc3ccc4ccccc4c3)CC2)cc1OC
    -14.3 | -1.3% | 7.0%[15.4 µM] | 7.4% | -4.8 | 1.6 | ?
COc1ccc(CCNC(=O)CNS(=O)(=O)c2ccc(Br)s2)cc1OC
    -3.0 | -1.0% | 7.6% | 0.2% | 9.6 | -0.5 | 5.3%
O=c1[nH]c2sc3c(c2c(=O)n1Cc1ccccc1)CCC3
    -9.9 | -3.7% | 5.2% | 5.6% | 0.5 | 2.0 | 6.1%
CCCCc1ccc(S(=O)(=O)Nc2nnc(C)s2)cc1
    -26.6 | 1.1% | 1.9% | -16.4% | -9.4 | 2.5 | -15.0%
O=C(O)CCNc1nc(-c2ccccc2)nc2ccccc12
    -7.8 | -5.0% | 3.1% | -8.8% | 24.5 | 0.7 | 23.5%
O=C(Cc1ccc(F)cc1)Nc1cccc(-c2cn3c(n2)SCC3)c1
    -3.0 | 1.1% | 6.5%[15.4 µM] | -8.9% | -29.3 | 1.2 | 1.2%
O=C(Cc1ccc(Cl)cc1)NCCc1cnc[nH]1
    -16.7 | / | -0.8% | 10.4% | 0.5 | -7.7 | 6.9%
O=C(c1ccco1)N1CCN(CC(O)COc2ccc3oc4ccccc4c3c2)CC1 (stereo not given)
    8.6 | -2.4% | -2.4% | -15.8% | 3.6 | 2.3 | -10.1%
NS(=O)(=O)c1cccc(NC(=O)CC(NC(=O)c2ccccc2Cl)c2ccccc2)c1 (stereo not given)
    -2.4 | / | 8.6% | 8.2% | -16.6 | -0.7 | 2.7%
O=C(c1cc2c(s1)CCC2)N1C(=O)c2ccccc2S1(=O)=O
    -2.3 | -1.1% | 26.0% | 7.0% | 1.3 | 6.6 | -0.8%
O=c1c2ccccc2nc(/C=C/c2ccc([N+](=O)[O-])cc2)n1CCCO
    -11.5 | ? | ? | 0.1% | -4.7 | 4.3 | -5.4%
COCCNC(=O)c1ccccc1NS(=O)(=O)c1ccc(Br)s1
    -5.8 | 1.4% | 38.8% | -15.4% | 8.8 | -1.1 | 24.5%
C/C(=N\NC(=O)c1ccc(O)cc1)c1cc2ccccc2o1
    0.5 | / | -0.4%[15.4 µM] | -5.2% | 1.2 | -3.9 | 3.4%
COc1cccc(-n2nnc3c(=O)n(CC(=O)Nc4ccccc4C)cnc32)c1
    0.1 | 9.7% | -2.4% | 9.8% | 1.0 | 9.9 | -2.9%
Cc1ccc(-c2onc3ccc(C4(C)OCCO4)cc23)cc1
    68.8* | -10.9% | -26.1% | 0.4% | -11.4 | -0.5 | -18.9%
Brc1ccc(NCc2cccc3ccccc23)nc1
    -12.1 | -3.7% | -31.7%[inhibitor] | -11.9% | -4.8 | -0.7 | 1.6%
O=C(c1ccccc1Cl)N1CCN(c2ncccn2)CC1
    -7.4 | / | -7.0%[15.4 µM] | -10.2% | / | / | /
CS(=O)(=O)N(Cc1ccccc1)c1ccc(C(=O)N2CCN(c3cccc(Cl)c3)CC2)cc1
    12.0 | -1.4% | -17.6% | -5.0% | 1.4 | 0.3 | 7.6%
CCOC(=O)c1coc(CNC(=O)c2c(C)oc3c2CCCC3)c1
    -7.0 | -3.7% | ? | -0.4% | -0.6 | 0.4 | -1.4%
O=C(CSc1nc(-c2ccccc2)c(-c2ccccc2)[nH]1)NCc1ccco1
    -0.6 | ? | 17.9% | 0.6% | 2.0 | -0.9 | 15.6%
COc1ccc(S(=O)(=O)N2CCCCC2)cc1NC(=O)c1ccc(N2CCCC2=O)cc1
    -1.0 | 1.8% | ? | ? | 7.5 | / | /
O=C(Nc1ccc(Nc2ccccc2)cc1)c1ccc(Cl)cc1Cl
    -12.9 | / | 1.6%[15.4 µM] | -18.5% | / | / | /
O=C1CC2(CCCCC2)CC(=O)N1CCc1ccccc1
    -0.8 | / | -19.0% | 8.2% | / | / | /
O=C(O)c1ccc2oc(=O)c(S(=O)(=O)c3ccc(F)cc3)cc2c1
    -8.3 | -10.1% | ? | ? | 11.9 | -3.1 | 0.8%
NC(=O)COc1ccc(/C=N/NS(=O)(=O)c2ccccc2)cc1
    -9.1 | / | 17.4%[15.4 µM] | -10.6% | -13.4 | 2.4 | -13.2%

Single records, as listed above. Order of screens: D2 PAM, ClpP mod, gsp agonist, gsp antag, TRPV1 PAM, Menin-MLL FL inh, Sfp inh
Record of O=C(O)c1ccc2oc(=O)c(S(=O)(=O)c3ccc(F)cc3)cc2c1 → -8.3, -10.1%, ?, ?, 11.9, -3.1, 0.8%
Record of COc1ccc(S(=O)(=O)N2CCCCC2)cc1NC(=O)c1ccc(N2CCCC2=O)cc1 → -1.0, 1.8%, ?, ?, 7.5, /, /
Record of CCOC(=O)c1coc(CNC(=O)c2c(C)oc3c2CCCC3)c1 → -7.0, -3.7%, ?, -0.4%, -0.6, 0.4, -1.4%

From PubChem BioAssay

Not a hit list; about 5.1% have a hit in one of these screens.
